Sa growth inh – S. aureus growth inhibition at 42 and 30 °C, primary screen, LtaS inhibitor project, RN4220, two temperatures | relative growth, % (concentration not given with the values) | OD600, 20 h, 42 °C; active compounds read low | actives 0.53% (n = 170,000);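 active means growth at 42 °C up to 50% and 20 or more points under that at 30 °C, or under 10% at both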;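 further: 300 nL library stock went into each well; scaled to the means of positive and negative controls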
GIV Gai3 FP – inhibitors of GIV peptide binding to Galpha-i3, primary screen, biochemical, fluorescence polarization, FITC-GIV GBA peptide, rat Galphai3; 90 min; active compounds read low; scaled: aluminum fluoride 0%, vehicle 100%; actives 0.42% (n = 210,000); AID 1224905, 2016; percent of control (FP), % (test concentration not listed);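 active means replicate mean at 85% of control or lower, very high polarization wells dropped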;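 further: lower values mean more displacement of the GIV peptide from Galpha-i3; wells of about 15 µL received 100 nL stock; the first replicate is given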
Target sequence (P08753 whole entry, looked up): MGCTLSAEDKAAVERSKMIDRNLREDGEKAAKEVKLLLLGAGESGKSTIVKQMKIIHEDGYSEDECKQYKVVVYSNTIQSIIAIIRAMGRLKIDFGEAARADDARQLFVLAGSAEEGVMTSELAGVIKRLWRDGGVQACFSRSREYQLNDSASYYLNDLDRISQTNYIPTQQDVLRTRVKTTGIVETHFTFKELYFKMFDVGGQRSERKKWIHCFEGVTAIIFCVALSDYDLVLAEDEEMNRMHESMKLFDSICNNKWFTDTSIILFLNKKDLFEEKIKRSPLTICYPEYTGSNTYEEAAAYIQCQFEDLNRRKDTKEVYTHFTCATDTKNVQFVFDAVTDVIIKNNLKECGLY
HCMV NEC inh – inhibitors of HCMV UL50-UL53 interaction, biochemical, HTRF; HCMV UL50-UL53 nuclear egress complex (human cytomegalovirus); actives 0.15% (n = 190,000); normalized percent inhibition; inhibition, % (concentration not given with the values);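 active means both replicates at 50% or more, plus weaker picks with an unusually low signal ratio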;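 further: stock transfer was 100 nL into about 20 µL; 0% = negative control wells and 100% = wells with untagged competitor protein; inactives centre near -12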
Sa growth inh second temp – second read-out of Sa growth inh, no call of its own (marks repeat the call); relative growth, %; measured here: growth at 30 °C;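 optical density after 20 h as mean of two plates; 100% = untreated growth and lower means inhibition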
* hit, by the source's call; . = no result given.

SMILES	Sa growth inh	Sa growth inh second temp	GIV Gai3 FP	HCMV NEC inh
CCCN(CCC)S(=O)(=O)c1c[nH]c(-c2nnc(CC)o2)c1	.	.	105.1	-14.0
CCc1[nH]c(=S)[nH]c(=O)c1C#N	96.9	86.3	103.2	-21.5
CCCCOc1ccc(S(=O)(=O)Nc2cccc(-c3ccc(N4CCOCC4)nn3)c2)cc1	120.3	94.2	103.8	.
c1ccc(-c2ccc(N3CCOCC3)s2)cc1	108.9	93.4	.	-3.0
COc1ccc(C(=O)Nc2nc3ccc(S(=O)(=O)N4CCCC4)cc3s2)cc1	64.9	88.9	97.5	.
CN(C)S(=O)(=O)c1ccc(NC(=O)c2ccc(=O)n(C)n2)cc1	98.6	95.7	.	-25.2
CCOC(=O)c1ccc(CN)cc1	122.5	92.6	.	0.4
CCn1c(O)c(/C=N/NS(=O)(=O)c2ccc(C)cc2)c(=O)n(CC)c1=S	71.2	44.1	.	-32.2
Cc1oc(-c2cccc(Cl)c2)nc1CN1CCC(C(=O)NCCCN2CCN(c3ccccc3F)CC2)CC1	94.2	85.5	103.4	-4.6
COc1ccc(Cc2nn3c(CSc4ccccc4)nnc3s2)cc1OC	.	.	105.5	0.2
COc1ccc(S(=O)(=O)Nc2ccc3nc(N4CCN(C)CC4)cc(C(=O)O)c3c2)cc1Cl	.	.	103.4	-4.5
Nc1ccc(OCC(O)C[n+]2ccccc2)cc1 (configuration not stated)	91.1	92.7	.	5.4
O=C(Nc1ccc(N2CCOCC2)cc1)C1CCCN(C(=O)c2ccc(Cl)cc2)C1 (configuration not stated)	106.0	106.8	.	10.4
Cc1ccc[n+](C(C)C(=O)c2ccccc2)c1 (configuration not stated)	100.9	107.1	103.6	.
Cc1cc(C)cc(Oc2nc3c(c(=O)n(C)c(=O)n3C)n2Cc2ccc(F)cc2)c1	103.5	85.9	105.7	-26.3
CC(=O)NCc1ccc(C(=O)COC(=O)CSc2ncnc3sccc23)o1	72.7	90.2	.	-37.6
CCOc1ccccc1CNS(=O)(=O)c1csc(C(N)=O)c1	87.5	92.9	102.6	.
CCOc1ccc(-c2c(C#N)c(N)nc(SCC(=O)c3ccc(OC)cc3)c2C#N)cc1	.	.	102.8	-14.7
CCc1nc2ccccc2nc1CC	89.8	96.8	105.4	17.5
CCn1c(-c2ccc(F)cc2)csc1=Nc1cc(OC)c(Cl)cc1OC	92.9	71.5	.	-8.6
CN(CCc1ccccn1)C(=O)c1cc2c(=O)oc3ccccc3c2s1	96.9	84.0	101.2	-15.4
Cc1ccc(C)n1-c1sccc1C#N	.	.	102.5	-9.8
O=C(CSc1nnc(-c2ccccc2)n1-c1ccccc1)N1CCCC1	132.5	98.9	102.0	-8.8
COc1ccc2cc(C(C)C(=O)Nc3ccc(N4CCN(C)CC4)cc3)ccc2c1 (configuration not stated)	74.5	93.1	.	-45.1
CCCNC(=O)c1sc(-n2[nH]c(C)c(Cc3ccc(Cl)cc3)c2=O)nc1C	.	.	104.4	-20.1
Cc1ccc2nc(-c3c[nH]c4ccccc34)c(Nc3ccccc3)n2c1	107.3	83.5	106.9	-20.8
Cc1ccccc1NC(=S)N/N=C/c1ccc(O)cc1O	39.8	25.0	.	2.3
Clc1nc(CN2CCOCC2)nc2sc3c(c12)CCC3	103.2	99.1	.	19.4
CCOC(=O)c1ccc(-c2ccc(/C=C3\SC(=S)NC3=O)o2)cc1	86.9	80.6	113.3	-24.4
CCN(CCCn1c(SCC#N)nc2ccccc2c1=O)c1ccccc1	102.4	89.1	98.1	5.1

A second format for part of the listing above:
CCn1c(O)c(/C=N/NS(=O)(=O)c2ccc(C)cc2)c(=O)n(CC)c1=S
  Sa growth inh = 71.2	Sa growth inh second temp = 44.1	GIV Gai3 FP = .	HCMV NEC inh = -32.2

Cc1oc(-c2cccc(Cl)c2)nc1CN1CCC(C(=O)NCCCN2CCN(c3ccccc3F)CC2)CC1
  Sa growth inh = 94.2	Sa growth inh second temp = 85.5	GIV Gai3 FP = 103.4	HCMV NEC inh = -4.6

COc1ccc(Cc2nn3c(CSc4ccccc4)nnc3s2)cc1OC
  Sa growth inh = .	Sa growth inh second temp = .	GIV Gai3 FP = 105.5	HCMV NEC inh = 0.2

COc1ccc(S(=O)(=O)Nc2ccc3nc(N4CCN(C)CC4)cc(C(=O)O)c3c2)cc1Cl
  Sa growth inh = .	Sa growth inh second temp = .	GIV Gai3 FP = 103.4	HCMV NEC inh = -4.5

3 records drawn at random from the list so far, as already listed:
SMILES	Sa growth inh	Sa growth inh second temp	GIV Gai3 FP	HCMV NEC inh
CN(CCc1ccccn1)C(=O)c1cc2c(=O)oc3ccccc3c2s1	96.9	84.0	101.2	-15.4
CCN(CCCn1c(SCC#N)nc2ccccc2c1=O)c1ccccc1	102.4	89.1	98.1	5.1
COc1ccc2cc(C(C)C(=O)Nc3ccc(N4CCN(C)CC4)cc3)ccc2c1 (configuration not stated)	74.5	93.1	.	-45.1

(next part)
SMILES	Sa growth inh	Sa growth inh second temp	GIV Gai3 FP	HCMV NEC inh
Cc1ccc(-n2c(C)c(C)c3c2ncn2nc(-c4ccc(F)cc4)nc32)cc1	.	.	108.5	-29.5
COc1ccc(NC(=O)c2nnc(CSCC(=O)NCCc3c(C)noc3C)s2)cc1	.	.	99.9	-38.2
CCCSc1ncc(Cl)c(C(=O)Nc2ccc(S(=O)(=O)N3CCC(C)CC3)cc2)n1	98.3	92.9	106.1	3.2
COc1ccc(OC)c(S(=O)(=O)NC2CC(=O)N(c3ccc(C)c(C)c3)C2)c1 (configuration not stated)	115.2	94.1	105.0	4.3
O=C(Nc1ccc(OC(F)(F)F)cc1)N1CCC(O)CC1	91.4	94.6	105.2	9.0
O=C(C1CCC1)N1CCc2cc(S(=O)(=O)NC3CCCC3)ccc21	82.0	91.7	95.7	.
Cc1cc(NS(=O)(=O)c2ccc(NC(=O)COc3ccc(Cl)cc3)cc2)nc(C)n1	91.9	84.5	106.4	-18.9
N#CCSc1cn(CC(=O)N2CCCC2)c2ccccc12	94.2	78.7	101.0	-31.9
O=C(OCCN1CCCCC1)c1ccc2c(c1)OCO2	108.2	92.7	102.2	-0.9
Cc1ccc(C(=O)OCC(=O)c2ccccc2)cc1NC(=O)c1ccco1	102.3	86.9	.	-16.7
O=C(/C=C/c1ccccc1)Nc1ccccc1N1CCCC1	106.2	95.8	98.7	1.9
CCC(=O)Nc1nc2ccc(NC(=O)CSc3nccc(C)n3)cc2s1	.	.	101.7	-31.7
COc1ccc(Nc2ncc(C#N)c(Nc3ccccc3)c2C#N)cc1	125.1	84.1	99.7	-4.2
CCOc1ccc(-c2nonc2NC(=O)COc2c(C)cc(C)cc2C)cc1OCC	100.3	97.0	99.4	7.6
CCOC(=O)c1ccc(N2C(=O)c3n[nH]c(-c4cccs4)c3C2c2cccc(F)c2)cc1 (configuration not stated)	65.5	76.6	107.2	12.9
CC(C)C(=O)NC(=S)Nc1ccc(Cl)cc1	84.3	96.9	108.4	-9.4
Cc1cc(N2CCCC2)n2nc(C(F)(F)F)nc2n1	.	.	109.0	-19.3
Oc1cc2c(cc1C(Nc1ccccn1)c1ccc3c(c1)OCO3)OCO2 (configuration not stated)	0.6*	-0.7*	.	2.3
CC1=C(C(=O)OC(C)C)C(c2ccc(C(C)C)cc2)C(C#N)=C(N)S1 (configuration not stated)	92.5	119.3	.	-8.5
Cc1cc(C(F)(F)F)c(C#N)c(SC2CC(=O)N(c3ccccc3)C2=O)n1 (configuration not stated)	.	.	111.6	-38.0
O=C(c1cnc2ccccc2c1Nc1ccccc1)N1CCOCC1	.	.	98.3	-14.5
O=C(Nc1ccccc1C(F)(F)F)c1cnccn1	86.5	98.5	.	-4.8
COc1ccccc1Cc1nc2ccccc2nc1SCC(=O)N1CCCc2ccccc21	92.1	92.5	99.5	.
COc1ccc(/C=C(\C#N)C(N)=S)cc1	85.9	86.3	109.5	17.6
Cc1ccc(C)n1C1CCCCC1	79.8	93.6	.	-4.1
S=C(Nc1ccc(Cl)cc1Cl)N1CCCC1c1cccs1 (configuration not stated)	87.1	76.0	106.4	17.2
CCC(C)NC(=O)c1cn(CC)c2ccc(S(=O)(=O)N3CCCCCC3)cc2c1=O (configuration not stated)	111.0	93.0	100.3	.
Cc1nnc(N2C(=N)S/C(=C\c3c(-c4ccccc4)n(C)c4ccccc34)C2=O)s1	89.5	62.5	99.8	-33.3
CCN(CC)C(=O)Cn1cc(S(=O)(=O)CC(=O)NC2CCCC2)c2ccccc21	87.7	91.7	101.5	-42.7
COc1cccc(-n2cc[nH]c(=S)c2=O)c1	.	.	100.1	-82.2
CC(C)N(C(=O)Cn1c(-c2cccnc2)ccc(C#N)c1=O)C(C)C	106.0	78.1	102.5	-6.6
O=C(O)Cn1cc(/C=C2/C(=O)NC(=O)N(c3ccccc3F)C2=O)c2ccccc21	.	.	101.3	-16.9
S=c1[nH]cnc2sc3c(c12)CCCC3	22.8	2.5	.	-0.4
COc1ccc(N2CCN(C(=O)c3ccc4c(c3)N(Cc3ccc(F)cc3)C(=O)c3ccccc3S4=O)CC2)cc1 (configuration not stated)	92.3	96.7	100.9	8.3
COc1ccc(CCN2C(=O)N(c3ccc(F)cc3)C(=O)C2CC(=O)Nc2ccc(OC)cc2)cc1 (configuration not stated)	97.7	69.8	97.8	-32.6
CC1CCc2nc(NNC(=O)CN3CCCC3)nc(C(F)(F)F)c2C1 (configuration not stated)	95.6	95.1	107.5	12.7
COC(=O)C(C(=O)OC)c1nc2ccccc2nc1Cl	66.9	89.0	.	-33.5
CCCCN(C)C(=O)c1ccc2c(c1)N(Cc1cccc(Cl)c1)C(=O)c1ccccc1S2=O (configuration not stated)	113.6	102.1	107.6	.
O=C(Cn1c(=O)c(C(F)(F)F)nc2ccccc21)NC1CCCCC1	.	.	104.1	-31.6
CCN(CC)S(=O)(=O)c1cccc(C(=O)Nc2ccccc2)c1	123.7	113.9	104.4	17.7
Cc1nc2c3ccccc3nc(SCc3ccc(C#N)cc3)n2n1	110.1	89.2	100.7	3.0
CCCc1cc(=O)[nH]c(SCC(=O)N2CC3(C)CC2CC(C)(C)C3)n1 (configuration not stated)	98.0	92.6	.	5.0
O=C(NC1CCCCC1)C1CCCN(c2ncnc3nn(-c4ccccc4)cc23)C1 (configuration not stated)	.	.	104.8	-17.5
CCOC(=O)c1c(/N=C/c2ccccc2O)sc2c1CCC2	96.3	105.6	108.4	7.4
COc1ccc(C2c3cc(OC)c(OC)cc3CC(=O)N2NC(=O)c2ccco2)cc1 (configuration not stated)	104.1	95.7	106.3	0.1
Cc1cc(C)c(C#N)c(Oc2cccc(N)c2)n1	88.0	95.2	109.6	2.7
CCN1CCN(Cc2c(O)ccc3oc(C)c(C(=O)Nc4cccc(C(F)(F)F)c4)c23)CC1	91.8	89.6	100.2	2.4
Cc1ccc(-c2ccc(=O)n(CC(=O)NCCN3CCCCC3C)n2)cc1 (configuration not stated)	105.3	92.0	106.6	.
Cc1csc(=O)n1CC(=O)NC(C)C12CC3CC(CC(C3)C1)C2 (configuration not stated)	93.0	96.7	.	-18.4
CCCN(Cc1cccs1)C(=O)Nc1ccc(OC)cc1	74.3	79.2	98.2	-21.3
O=C(c1[nH]nc2c1CCc1ccccc1-2)N1CCC(Cc2ccccc2)CC1	.	.	104.2	15.9
CC(C)NC(=O)CSCc1cnn(-c2ccccc2)c1-n1cccc1	72.2	76.3	97.1	.
CC1(C)Cc2c(sc3ncn4nc(-c5ccccc5)nc4c23)C(C)(C)N1	101.1	104.5	103.5	.
CCOc1c(C)cnc2c1c(=O)n(CC(=O)N1CCc3ccccc31)c(=O)n2C	.	.	104.4	-4.7
CC(OC(=O)C12CC3CC(CC(O)(C3)C1)C2)C(=O)N(C)c1ccccc1 (configuration not stated)	111.0	92.1	.	-13.4
Cc1cc2c(cc1S(=O)(=O)NCc1ccccc1)n(C)c(=O)c(=O)n2C	96.6	95.2	106.0	-8.8
CCCNC(=O)c1ccc2c(c1)N(Cc1ccc(F)cc1)CCS2	95.9	75.9	106.2	.
COc1ccccc1Cc1nc2ccccc2nc1SCC(=O)Nc1ccc2c(c1)OCO2	87.6	79.3	94.9	.
COc1cccc(CN2CCc3nc(Nc4ccccc4)ncc3C2)c1	90.2	87.3	108.6	-27.6
CCn1c(-c2cccs2)c(CNC(=O)Nc2ccc3c(c2)OCCO3)c2ccccc21	96.3	83.3	108.6	-2.4

The listing continues.
SMILES	Sa growth inh	Sa growth inh second temp	GIV Gai3 FP	HCMV NEC inh
NC(=O)C1CCN(C(=O)c2ccc(Oc3cc(Cl)cc(Cl)c3)o2)CC1	81.3	86.2	99.6	-24.0
CCOc1cc(C(=O)O)c(N)cc1OC	86.3	97.6	.	29.9
Cc1oc(-c2ccccc2)nc1CCO	100.4	84.2	101.5	-9.4
Cc1ccc2cc(CCNC(=O)C34CC5CC(CC(C5)C3)C4)c(=O)[nH]c2c1C	104.7	90.1	99.0	.
CN(C)C(=O)COc1ccc2c(-c3ccccc3)cc(=O)oc2c1	76.2	91.4	.	-72.0

Look-ups from the list.
In Sa growth inh second temp, Cc1oc(-c2ccccc2)nc1CCO reads 84.2
In HCMV NEC inh, NC(=O)C1CCN(C(=O)c2ccc(Oc3cc(Cl)cc(Cl)c3)o2)CC1 reads -24.0
